# HCMV UL50-53 inh – inhibitors of HCMV UL50-UL53 interaction, biochemical, HTRF. HCMV UL50-UL53 nuclear egress complex (human cytomegalovirus). normalized percent inhibition. inhibition, % (no concentration beside the values). actives 0.15% (n = 190,000);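 active = both replicates at 50% or more, plus weaker picks with an unusually low signal ratio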;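 note: stock transfer was 100 nL into about 20 µL; 0% = negative control wells and 100% = wells with untagged competitor protein; inactives centre near -12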
# Sa growth inh – S. aureus growth inhibition at 42 and 30 °C, primary screen, LtaS inhibitor project, RN4220, two temperatures | OD600, 20 h, 42 °C; hits give low values | relative growth, % (concentration not given with the values) | actives 0.53% (n = 170,000) | AID 720641, 2013;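 active = growth at 42 °C up to 50% and 20 or more points under that at 30 °C, or under 10% at both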;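 note: 300 nL library stock went into each well; scaled to the means of positive and negative controls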
# GIV Gai3 FP – inhibitors of GIV peptide binding to Galpha-i3, primary screen, biochemical, fluorescence polarization, FITC-GIV GBA peptide, rat Galphai3. Guanine nucleotide-binding protein G(i) subunit alpha-3 (Rattus norvegicus), P08753. 90 min; hits give low values; scaled: aluminum fluoride 0%, vehicle 100%. percent of control (FP), % (no concentration beside the values). actives 0.42% (n = 210,000). AID 1224905, 2016;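 active = replicate mean at 85% of control or lower, very high polarization wells dropped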;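 note: wells of about 15 µL received 100 nL stock; the first replicate is given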
# Target sequence (P08753 whole entry, looked up): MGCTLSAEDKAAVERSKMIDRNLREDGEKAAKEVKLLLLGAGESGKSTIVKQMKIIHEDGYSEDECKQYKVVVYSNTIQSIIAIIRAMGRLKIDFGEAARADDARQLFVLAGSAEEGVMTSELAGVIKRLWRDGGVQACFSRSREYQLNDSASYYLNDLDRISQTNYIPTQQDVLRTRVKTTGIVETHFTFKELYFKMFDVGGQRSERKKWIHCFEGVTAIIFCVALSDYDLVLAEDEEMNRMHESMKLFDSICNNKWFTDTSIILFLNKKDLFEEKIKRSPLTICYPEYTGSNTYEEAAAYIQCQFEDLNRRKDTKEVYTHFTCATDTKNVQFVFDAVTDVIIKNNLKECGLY
# Sa growth inh second temp – recorded beside Sa growth inh, whose call it bears; relative growth, %; measured here: growth at 30 °C;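 optical density after 20 h as mean of two plates; 100% = untreated growth and lower means inhibition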
# The depositor's hits bear a star; . = not tested or not shown; & = joins results of further samples. Outcome played no part in choosing rows, and some 0.8% of all compounds hit somewhere here.
mol	Sa growth inh	HCMV UL50-53 inh	Sa growth inh second temp	GIV Gai3 FP
CCOc1ccc(C(C)(C)C)cc1S(=O)(=O)n1c(C)nc2ccccc21	86	-26	93	103
CCOC(=O)c1c(NC(=O)Cc2ccccc2)sc2c1CCCC2	75	5	92	.
Cc1ccc(C2CC(=O)c3cnc4c(-c5ccc(F)cc5)c(C)nn4c3C2)cc1 (configuration not stated)	.	-6	.	95
CCN(CC)S(=O)(=O)c1ccc2oc(Sc3cc(C)c(C#N)c4nc5ccccc5n34)nc2c1	79	-41	86	.
Cc1cc(C)cc(NC(=O)CSc2nccn2-c2ccccc2)c1	116	.	94	106
O=C(O)CSc1c2c(nc3cc(C(=O)Nc4ccc(F)c(Cl)c4)ccc13)CCC2	100	-31	89	102
O=C(CCS(=O)(=O)c1cccs1)Nc1ccc(C(=O)NCc2ccccc2)cc1	114	0	81	100
CCOC(=O)c1cc(C(=O)OCC)c(C)nc1C	93	-9	86	.
O=P1(N2CCN(c3ccc(Cl)cc3)CC2)COc2ccccc2OC1	106	.	81	102
COc1cc2ncc(C#N)c(Nc3ccc4c(c3)OCO4)c2cc1OC	.	-42	.	110
O=S1(=O)N=C2CCCCCN2C(c2ccc(N3CCOCC3)cc2)N1 (configuration not stated)	104	2	92	.
NC(=S)c1sc(=S)n(-c2ccccc2)c1N	86	-83	82	116
O=C1c2ccccc2C(=O)N1CSc1nnc(Nc2ccccc2)s1	105	-19	97	.
O=C(O)c1ncc(C(F)(F)F)cc1Cl	88	-31	88	104
COc1cccc(C2=NN(C(=O)c3ccc(C(C)(C)C)cc3)C(O)(C(F)(F)F)C2)c1 (configuration not stated)	.	-12	.	101
COc1ccc(N2CCN(CC(O)c3ccc4c(c3)CCN4C(C)=O)CC2)cc1 (configuration not stated)	103	1&-17	94	106&96
COC(=O)C1=C(C)NC(C)=C(C(=O)OC)C1C(=O)OCC(=O)c1ccc2c(c1)NC(=O)CO2	93	4	97	.
CNC(=O)c1cnc2scc(C)n2c1=O	.	-16	.	104
O=C(c1ccc(NC(=O)N2CCCCc3ccccc32)cc1)N1CCOCC1	.	-22	.	102
CCN1C(=O)c2ccccc2S(=O)c2ccc(C(=O)N3CCc4ccccc43)cc21 (configuration not stated)	107	-4	91	96

# More records:
mol	Sa growth inh	HCMV UL50-53 inh	Sa growth inh second temp	GIV Gai3 FP
CCCNC(=O)CCCC(=O)n1ncc2cc(C)ccc21	.	-17	.	102
Cc1ccc(CSC2=Nc3ccccc3C3=NC(CCC(=O)NCc4cccs4)C(=O)N23)cc1 (configuration not stated)	104	.	104	103
O=C(Nc1ccc2c(c1)OCCO2)C1CCN(c2ccc(-c3cccs3)nn2)CC1	97	-26	87	97
CC(C)c1ccc2occ(CC(=O)Nc3ccc(S(N)(=O)=O)cc3)c2c1	97	-7	79	106
O=C(/C=C/c1cccs1)NC(=S)N1CCCCC1	98	-69	82	100
O=C1CN(C(=O)CSc2ncc(C(F)(F)F)cc2Cl)c2ccccc2N1	77	-2	92	.
CCOc1ccc(C(=N/O)/C(C)=N/O)cc1	126	-6	101	112
C=CC[N+]1(CC=C)CCOCC1	97	-28	87	97
CN(CCc1ccccn1)c1ncnc2sccc12	97	-20	86	.
CCCS(=O)(=O)N1CCN=C1N1CCN(c2ccc(F)cc2)CC1	.	-22	.	107
COc1ccc(Cl)cc1NCC(O)Cn1nnnc1-c1ccccc1 (configuration not stated)	.	-27	.	98
CN1CCN(CCCNC(=O)c2ccc3nc(Cc4ccccc4)oc3c2)CC1	77	.	88	100
OCC1OC(Oc2ccc(O)cc2)C(O)C(O)C1O (configuration not stated)	101	-17&1	91	102
Cc1nc(-c2ccc(S(=O)(=O)N3CCCN(CCc4ccccc4)CC3)s2)cs1	101	-20	88	109
O=C(CCCCn1c(=O)c2ccccc2n(Cc2ccccc2F)c1=O)NCc1ccc2c(c1)OCO2	97	-4	107	103
Cc1nn2c(NCC(C)C)cc(C(C)(C)C)nc2c1-c1ccc(F)cc1	.	-25	.	98
Cc1ccccc1CCNC(=O)c1ccc2c(c1)nc1n2CCCCC1	83	.	88	103
CC(=O)Nc1ccc(SCC(=O)NC(=O)NC2CCCCC2)cc1	98	8	96	.
CCOC(=O)CCC(=O)Nc1cc(C)nn1-c1ncnc2c1cnn2-c1ccc(F)cc1	.	-20	.	102
CCCCCn1c(-c2ccccc2)nc2ccccc21	19	0	20	.

# The listing continues:
mol	Sa growth inh	HCMV UL50-53 inh	Sa growth inh second temp	GIV Gai3 FP
CC(=O)c1cccc(NC(=O)Nc2cc3c(cc2N2CCCC2)n(C)c(=O)n3C)c1	100	3	95	104
Cn1c(=O)c2c(nc3n2Cc2c(Cl)cccc2N3CCNC(=O)C2CCC2)n(C)c1=O	85	4	79	108
COc1cccc2cc(C(N)=O)/c(=N/NS(=O)(=O)c3ccc(C)cc3)oc12	90	-38	80	100
CCS(=O)(=O)c1ccc(-c2ccc(NC(=O)c3ccc(Cl)cc3)cc2)nn1	.	5	.	103
Cc1ccc(NC(=O)c2ccco2)nc1	98	19	77	104
Cc1cccn2cc(CNC(=O)C(C)(C)C)nc12	98	.	80	99
Cc1ccc(-c2nnc3c4ccccc4c(C)nn23)cc1S(=O)(=O)N1CCC(C)CC1	.	-14	.	99
CC1CCCCN1C(=O)c1ccccc1NC(=O)c1ccco1 (configuration not stated)	111	-8	79	105
CCOC(=O)c1sc(NC(=O)CCn2c(=O)oc3ccccc32)c(C(=O)OCC)c1C	.	3	.	101
COCCOC(=O)C1=C(C)NC(C)=C(C(=O)OCCOC)C1c1ccc(-c2ccc(Cl)cc2Cl)o1	.	-24	.	109
Cc1nc(NC2=NCN(Cc3ccccc3)CN2)nc2ccccc12	104	-14	91	104&107
COC(=O)c1ccc(C2C3=C(CCCC3=O)Nc3onc(C)c32)cc1 (configuration not stated)	.	-29	.	109
CN(Cc1cccs1)C(=O)Cc1c[nH]c2ccccc12	115	-8	91	.
O=C(NC(=S)N1CCN(Cc2ccccc2)CC1)C1CCCCC1	85	-11	92	.
COc1cccc(-c2cc(C(=O)NCCc3ccccc3)[nH]n2)c1	99	.	89	100
COc1ccc(Cl)cc1S(=O)(=O)Nc1cc2c(cc1N1CCCCC1)n(C)c(=O)c(=O)n2C	.	-4	.	103
Cc1cccc(-c2noc(-c3ccccc3OCC(=O)Nc3ccccc3[N+](=O)[O-])n2)c1	77	0	91	108
CCOc1cccc(C(=O)Nc2nnc(S(=O)(=O)N(C)c3ccc(C)cc3)s2)c1	93	-25	67	108
COc1ccc(-c2noc(-c3nnn(-c4ccccc4Cl)c3N)n2)cc1	.	-13	.	100
CC(=Nc1ccccc1)c1cccs1	107	2	94	105

# Continued.
mol	Sa growth inh	HCMV UL50-53 inh	Sa growth inh second temp	GIV Gai3 FP
C=CCn1c(C)c2cc(Cl)c(Cl)cc2[n+]1C	85	.	90	103
COc1ccc(CNC(=O)CN(c2cc(C(F)(F)F)ccc2Cl)S(C)(=O)=O)cc1	97	-22	87	108
Cc1cccc2nc(-c3ccc(N(C)C)cc3)c(NCCC(C)C)n12	92	-44	94	116
CCCOC(=O)Cn1c(=O)oc2cc(S(=O)(=O)NCC3CCCO3)ccc21 (configuration not stated)	.	2	.	98
O=C1CN(C(=O)c2ccccc2)C(=O)CN1C(=O)c1ccccc1	147	-7	101	98
S=C1C=C(N2CCCCC2)CC(c2ccc(Cl)cc2)S1 (configuration not stated)	110	-75	82	109
Cc1cc2nc(COc3ccccc3NC(=O)c3ccccc3Br)cc(=O)n2o1	.	-4	.	104
CN1CCN(C(CNC(=O)c2cccc(F)c2)c2ccc3c(c2)OCO3)CC1 (configuration not stated)	103	.	85	104
CCNC(=O)C1CN(S(=O)(=O)c2ccccc2)CCN1S(=O)(=O)c1ccccc1 (configuration not stated)	101	-15	94	105
O=C(CC1SC(=NC2CC2)NC1=O)Nc1cc(C(F)(F)F)ccc1Cl (configuration not stated)	78	-24	90	.
Cc1oc(CSCCSCc2cc(C(=O)O)c(C)o2)cc1C(=O)O	125	-14	110	100
COc1ccc(C(=O)CN2C(=O)COc3ccccc3C2=O)cc1Cl	.	-4	.	106
COC(=O)Cn1cc(C(=O)c2ccco2)c2ccccc21	95	-2	76	107
COCCN1CCn2c(nc3cc(Cl)ccc32)C1	.	-11	.	99
CC1CCC(N2CCCC(CO)C2)CC1 (configuration not stated)	128	-18	105	96
O=C1CCCN1CCNC(=S)Nc1ccccc1	97	.	80	106
COc1cc(NC(=O)Cn2cnc([N+](=O)[O-])n2)cc([N+](=O)[O-])c1	.	-108	.	97
CCc1cc(SC/C(O)=C(\C#N)c2nc3ccccc3[nH]2)n2c(nc3ccccc32)c1C#N	48	-38	7	.
Cc1cccc(NC(=O)CN2C(=O)C(c3ccccc3)=NC23CCC(C)CC3)c1 (configuration not stated)	95	-7	83	96
COc1ccc(C=Nc2ccc(C(C)(C)C)cc2)cc1	101	-44	90	99

# Of the compounds above, these have an aryl thioether with sulfur outside any ring.
mol	Sa growth inh	HCMV UL50-53 inh	Sa growth inh second temp	GIV Gai3 FP
CCN(CC)S(=O)(=O)c1ccc2oc(Sc3cc(C)c(C#N)c4nc5ccccc5n34)nc2c1	79	-41	86	.
Cc1cc(C)cc(NC(=O)CSc2nccn2-c2ccccc2)c1	116	.	94	106
O=C(O)CSc1c2c(nc3cc(C(=O)Nc4ccc(F)c(Cl)c4)ccc13)CCC2	100	-31	89	102
O=C1c2ccccc2C(=O)N1CSc1nnc(Nc2ccccc2)s1	105	-19	97	.
O=C1CN(C(=O)CSc2ncc(C(F)(F)F)cc2Cl)c2ccccc2N1	77	-2	92	.
CC(=O)Nc1ccc(SCC(=O)NC(=O)NC2CCCCC2)cc1	98	8	96	.
CCc1cc(SC/C(O)=C(\C#N)c2nc3ccccc3[nH]2)n2c(nc3ccccc32)c1C#N	48	-38	7	.

# Going on with the list:
mol	Sa growth inh	HCMV UL50-53 inh	Sa growth inh second temp	GIV Gai3 FP
CCOC(=O)c1c(C)[nH]c(C)c1S(=O)(=O)N(C)CC(=O)N1CCN(c2ccc(Cl)cc2)CC1	97	.	87	106
COc1cc(SC)ccc1C(=O)OCC(=O)N(C)C1(C#N)CCCCC1	84	-23	94	.
CCc1ccc(-c2nc(CN3CCCC(C(=O)NCc4ccccc4Cl)C3)c(C)o2)cc1 (configuration not stated)	116	-22	95	105
CC(NCc1ccc(F)cc1)C12CC3CC(CC(C3)C1)C2 (configuration not stated)	110	.	70	88
CCCCC1CCC(C(=O)Nc2nc(C)ns2)CC1 (configuration not stated)	.	-12	.	101
Cn1c(=O)c2c(ncn2CC(=O)Nc2ccccc2)n(C)c1=O	.	-31	.	105
Cc1ccc(C)c(NC(=O)Nc2ccc3c(c2)N(C)C(=O)CS3)c1	.	-18	.	110
COc1ccc(C2C(C(=O)NC(C)C)c3ccccc3C(=O)N2Cc2ccc(F)cc2)cc1 (configuration not stated)	105	.	87	104
COC(=O)C1=C(C)N(Cc2cccnc2)C(=O)/C1=C\c1ccc(OC)cc1OC	96	-15	111	102
CSc1ccc(C=C2C(=O)OC3(CCCCC3)OC2=O)cc1	97	.	90	99
Cn1c(/C(C#N)=C/c2ccccc2Br)nc2ccccc21	99	6	96	108
COc1cccc(NC(=O)CSc2nc(-c3ccccc3Cl)nc3c2Cc2c(CO)cnc(C)c2O3)c1	96	.	98	104
COCCn1c(C)cc(O)c(C(c2ccc(Cl)cc2)N2CCN(c3ccccc3)CC2)c1=O (configuration not stated)	95	.	90	98
O=C(CN1C(=O)c2ccccc2S1(=O)=O)c1ccc2c(c1)OCCCO2	90	-26	83	101
O=C(NC1CCCCC1)C1CCC(=O)N1C1CCCCC1 (configuration not stated)	112	1	96	106
COc1ccc(NC(=O)c2oc3ccc(S(=O)(=O)N(C)C4CCCCC4)cc3c2C)cc1	112	.	90	106
O=S(=O)(c1ccc(Cl)cc1)n1nccc1-c1cc(-c2ccccc2)no1	96	0	113	99
O=C1N/C(=N/N=C\c2ccco2)SC1Cc1cccc(C(F)(F)F)c1 (configuration not stated)	90	-9	117	97
Cc1cccc(N2CCN(S(=O)(=O)c3ccc(-c4cc(C(F)(F)F)on4)s3)CC2)c1C	99	.	94	101
Cc1ccc(CSc2n[nH]c(-c3ccccc3O)n2)cc1	87	-18	85	95

# (continued)
mol	Sa growth inh	HCMV UL50-53 inh	Sa growth inh second temp	GIV Gai3 FP
COC(=O)CNC(=O)c1cc2cc(Cl)ccc2oc1=O	113	-50	79	102
O=S(=O)(Cc1ccc(-c2csnn2)cc1)c1ccc(Cl)cc1	97	-1	69	96
CC(Sc1nc2cc(Cl)ccc2c(=O)n1C1CCCCC1)C(=O)NC(N)=O (configuration not stated)	102	-1	98	.
CC1=CCC(C(=O)O)C(C(=O)NC2CCCCC2)C1 (configuration not stated)	109	5	83	.
Cc1ccsc1CNC(=O)CCC(=O)O	121	-4	97	99
CCCC1(CCC)NC(=O)N(Cn2nnc3ccccc3c2=O)C1=O	96	-44	89	.
